T cruzi inh: blocks replication of Trypanosoma cruzi; T. cruzi beta-gal in NIH3T3, luminescence, 90 h; inhibition, % (concentration not given with the values); hit rate 1.4% among 300,000;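 active means mean inhibition across valid replicates above about 55%, limit read from the data; inconclusive means mean below that limit but half or more replicates reach it; inactive means mean below it, under half of replicates reach it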;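 further: signal also drops with host cell toxicity which is not excluded here; 0% = plate median of DMSO wells and 100% = zero luminescence signal; higher percent means less beta-gal luminescence so fewer parasites; stock transfer was 50 nL into about 50 µL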
Ecoli rRNA inh: inhibitors of bacterial rRNA selective over humanized ribosomes; E. coli WT GFP vs humanized-ribosome RFP mutants, fluorescence, 24 h; hits give low values; DMSO median 0, no signal -100; GFP signal change (wild-type ribosome), % (concentration not given with the values); hit rate 1.6% among 350,000; AID 720706;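 active means significant combined selectivity score with lowered wild-type GFP, culture density cut under 30%, mutant RFP and density less affected; inactive means any of these conditions unmet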; further: one replicate is shown; some compounds called inactive have numbers as strong as hits
UCH37 inh: human UCH37 deubiquitinating enzyme inhibition; hit rate 0.33% among 330,000; inhibition, % (no concentration beside the values); AID 588478; purified proteasome/UCH37, Ub-AMC cleavage fluorescence; Q9Y5K5;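 active means mean of two replicates above 20%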;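 further: 0% = compound-free wells with enzyme and 100% = wells lacking proteasome; stock transfer was 100 nL into about 20 µL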
Target sequence (Q9Y5K5 whole entry, looked up): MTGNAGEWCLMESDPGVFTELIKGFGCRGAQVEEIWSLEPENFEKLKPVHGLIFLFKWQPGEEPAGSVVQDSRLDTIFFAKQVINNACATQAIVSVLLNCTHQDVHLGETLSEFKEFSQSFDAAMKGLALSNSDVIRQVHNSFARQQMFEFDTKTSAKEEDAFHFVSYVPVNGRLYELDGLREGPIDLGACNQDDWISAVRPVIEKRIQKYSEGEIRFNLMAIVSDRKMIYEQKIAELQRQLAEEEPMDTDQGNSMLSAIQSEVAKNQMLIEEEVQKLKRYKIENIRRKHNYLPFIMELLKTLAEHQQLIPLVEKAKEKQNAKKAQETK
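system = Proteasome-associated human UCH37 deubiquitinase | amount = 0.15 nM proteasome as dispensed | medium = pH 7.4 Tris-HCl (50 mM) with ovalbumin, ATP-MgCl2, DTT | incubation = 30 min preincubation with enzyme, 25 min cleavage at room temperature | detection = AMC fluorescence 355/460 nm | read-out basis = percent inhibition | controls = no-proteasome and no-compound wells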
Beta cell apopt: beta cell apoptosis inhibition; INS-1E cytokine-induced death, ATP luminescence, 48 h; percent of positive-control rescue, neutral wells zero; protection from apoptosis, % (test concentration not listed); hit rate 0.8% among 300,000; AID 435005;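 active means all replicates at 75% or more, or half of them and the mean; inconclusive means half reach 75% but not the mean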;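 further: 0% = cytokine-treated negative control wells and 100% = positive control rescue; higher means more ATP so stronger rescue from cytokine killing; wells of about 40 µL received 100 nL stock; the first replicate is given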
A1 inh: inhibitors of the anti-apoptotic protein A1, read as caspase activation; MEF A1-2A-BIM cells, Caspase-Glo 3/7 luminescence, 3 h; percent of clofoctol response, vehicle zero; hit rate 0.066% among 330,000; caspase activation, % (concentration not given with the values);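 active means over half of replicate activation scores above 10%, or exactly half above 10 with the replicate mean above 10; inconclusive means replicate mean below 10 yet half the replicates above 10; inactive means over half of replicates below 10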;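 further: wells of about 30 µL received 50 nL stock; many hits fall short of the cut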
AF4-AF9 inh: inhibitors of human MLL-AF4/AF9 interaction; hit rate 0.47% among 350,000; P42568; AID 651704; inhibition, % at 10 µM; AlphaScreen, biotin-AF4 peptide binding to FLAG-AF9;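 active means every replicate reaching a set inhibition limit, whatever the replicate mean, cut at about 25% in these data; inconclusive means mean inhibition reaches that limit but some replicates miss it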;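 further: 0% = plate neutral control median and 100% = total signal loss; the record names both 10 and 1 µM as test concentration; the first replicate is given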
Target sequence (P42568 whole entry, looked up): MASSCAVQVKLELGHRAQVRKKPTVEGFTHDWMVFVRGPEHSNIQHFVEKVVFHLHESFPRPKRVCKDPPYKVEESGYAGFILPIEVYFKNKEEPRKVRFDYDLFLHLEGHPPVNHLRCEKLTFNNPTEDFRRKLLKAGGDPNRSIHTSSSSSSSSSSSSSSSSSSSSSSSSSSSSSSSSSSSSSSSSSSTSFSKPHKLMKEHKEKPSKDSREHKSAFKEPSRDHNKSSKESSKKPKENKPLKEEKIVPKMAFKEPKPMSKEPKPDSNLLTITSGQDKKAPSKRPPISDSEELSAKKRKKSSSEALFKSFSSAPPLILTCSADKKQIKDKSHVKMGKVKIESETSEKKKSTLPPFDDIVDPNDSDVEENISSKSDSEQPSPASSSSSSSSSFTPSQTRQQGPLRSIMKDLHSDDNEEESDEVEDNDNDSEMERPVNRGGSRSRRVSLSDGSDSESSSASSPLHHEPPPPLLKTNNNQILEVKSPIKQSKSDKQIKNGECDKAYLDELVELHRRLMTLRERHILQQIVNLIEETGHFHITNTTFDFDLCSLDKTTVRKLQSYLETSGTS
Ecoli growth: blocks Escherichia coli growth | OD600, 23 h; hits give low values | hit rate 0.21% among 330,000 | OD600 absorbance (no concentration beside the values) | AID 1053175;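 active means OD600 absorbance below the run mean of sample wells minus 3.6 SD, in any replicate, cut at about 0.56 in these data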;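 further: stock transfer was 300 nL into about 60 µL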
FGF22 binding: FGF22 (human) thermal shift binding | AID 651658 | recombinant FGF22 thermal shift, SYPRO orange fluorescence; percent of sucrose octasulfate shift, DMSO zero | Q9HCT0 | hit rate 1.5% among 340,000 | calls only at 9.99 µM;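 active means melting point raised past a set limit in the mean and every replicate; inconclusive means no clear call; three in four hits are not shown here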
Target sequence (Q9HCT0 whole entry, looked up): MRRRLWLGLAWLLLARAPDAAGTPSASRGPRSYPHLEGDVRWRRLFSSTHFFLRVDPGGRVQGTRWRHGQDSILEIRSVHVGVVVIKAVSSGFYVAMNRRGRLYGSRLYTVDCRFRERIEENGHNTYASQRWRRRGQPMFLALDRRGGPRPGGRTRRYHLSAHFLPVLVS
Ecoli rRNA inh OD600: further read-out of Ecoli rRNA inh, marked with its call; OD600 change, %; measured here: OD600 growth;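 optical density of the mix in the first replicate; 0 = DMSO median and -100 = no signal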
Ecoli rRNA inh RFP: further read-out of Ecoli rRNA inh, marked with its call; RFP signal change, %; measured here: RFP humanized mutant strains;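 first replicate; 0 = DMSO median and -100 = no signal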
An asterisk follows results filed as active; i = inactive; ? = inconclusive; . = no result given. The list is partial; the hit share may differ from the screen's.

SMILES	T cruzi inh	Ecoli rRNA inh	Ecoli rRNA inh OD600	Ecoli rRNA inh RFP	UCH37 inh	Beta cell apopt	A1 inh	AF4-AF9 inh	Ecoli growth	FGF22 binding
CCCCCCCC(=O)NNC(=O)c1ccc([N+](=O)[O-])cc1	-11	.	.	.	0.7	-6	-0.7	.	0.74	.
O=C(NNC(=O)c1ccccn1)c1ccc(OC(F)F)cc1	.	-32	-54	-3.4	-2.7	67	-7.2	0.9	0.53	i
Cc1ccccc1NCC(=O)N/N=C/c1c(C)c(C(=O)c2ccc(Cl)cc2)n2ccccc12	35	14	5	8.9	.	-1	-0.4	-4.2	.	i
Cc1ccc(NC(=O)CSC2=C(C#N)C(c3ccco3)C3=C(CC(C)(C)CC3=O)N2)cc1 (centres undefined)	7	.	.	.	1.2	-2	-0.4	.	0.7	.
COc1ccc(S(=O)(=O)N2CCCC2)cc1Br	-9	-8	-6	-0.2	2.4	.	0.5	-3.0	0.66	i
Cc1ccccc1C1CCCN(Cc2nc(CC3CC3)no2)C1 (centres undefined)	.	.	.	.	3.1	-8	-0.5	0.6	0.66	i
Cc1ccc2sc3ccc(NC(=O)c4ccccc4Cl)cc3c(=O)c2c1	15	.	.	.	-37	8	1.0	.	0.71	.
O=S(=O)(c1ccccc1)N1CCN(CCc2ccccc2)CC1	-7	3	-1	3.2	4.8	1	-1.2	2.5	0.65	i
CN1C2CCC1CC(NS(=O)(=O)c1cccc(C(F)(F)F)c1)C2 (centres undefined)	-22	4	11	-0.4	0.5	-8	?	-1.3	0.68	i
COc1ccccc1C1/C(=C(/O)c2ccccc2)C(=O)C(=O)N1CC(C)O (centres undefined)	-10	.	.	.	2.0	2	0.1	.	.	.
COc1cc(CN2CCN(C(=O)c3cccc4ccccc34)CC2)cc(OC)c1O	-7	16	2	-0.6	5.2	.	1.4	-3.0	0.7	i
COc1cc(OC)cc(N2C(=O)CSCC2=O)c1	-21	12	8	1.3	2.2	-4	0.4	.	0.62	i
CSCC(C)N1CCC(CCC(=O)NC2CC2)CC1 (centres undefined)	15	10	18	1.1	8.0	-11	0.1	1.0	0.69	i
Cc1ccc(NC(=O)C(=O)C2C(=O)Nc3ccccc32)cc1 (centres undefined)	7	8	-1	-2.4	4.0	-6	-2.7	-3.5	0.67	i
C=CCN1C(=O)/C(=C2/Sc3ccc(OC)cc3N2CC)SC1=S	7	17	-3	2.1	0.5	.	-0.7	-0.8	0.75	i
N#CCc1nc(C(c2ccccc2)c2ccccc2)no1	-8	8	17	31	3.4	-1	-0.3	3.8	0.7	i
Cc1c(N2C(=O)CS/C2=N\N=C\c2ccccc2O)c(=O)n(-c2ccccc2)n1C	-11	2	0	-8.8	.	-2	-0.4	-19	.	i
OCC[C@H]1C[C@@H](O)[C@H](O)[C@]2(Cc3ccccc3O2)O1	.	5	11	11	6.1	-2	0.2	-2.7	.	i
Cc1cc(-n2c(C)cc(C(=O)CSc3nncn3C(C)C)c2C)no1	51	5	8	1.4	5.6	-5	0.2	3.0	0.64	i
Cc1cccc(C(=O)NNS(=O)(=O)c2ccc(F)cc2)c1	-16	15	13	1.0	.	1	0.8	-24	.	i
NNC(=O)c1[nH]c2ccccc2c1-c1ccccc1	7	-6	-13	4.8	.	29	-0.2	2.1	.	i
CCN1CCCC1CNC(=O)c1cc2ccc(OC)cc2[nH]1 (centres undefined)	11	12	14	1.2	-2.9	-2	-0.5	2.5	0.67	i
CC(=O)Oc1ccccc1C1C[C@]2(C)CC(=O)NC2N1C(C)=O (some centres undefined)	2	8	7	3.2	0.2	3	-0.2	-0.7	0.67	i
O=C(NCc1ccccc1)c1csc(-c2cccnc2)n1	-24	-37*	-19*	4.0*	-1.7	-14	-0.7	-1.3	0.65	i
CSc1ccc(NS(=O)(=O)c2ccc(-n3cnnn3)cc2)cc1	3	-3	-4	-0.1	0.9	1	0.3	-0.7	0.71	i
C=CCN(CC=C)C(=O)C(=O)c1ccn(-c2c(C)csc2C(=O)OC)c1	4	-2	-4	-0.2	0.4	1	0.8	1.5	0.7	i
O=C(O)c1ccccc1C(=O)c1ccc(F)c(F)c1	.	-1	-5	-0.4	0.4	.	.	-28	0.64	i
CC[n+]1ccccc1/C=C/c1ccc(N(C)C)cc1	59*	79	-7	59	21*	.	.	4.3	0.7	i
C/C(Cc1ccccc1)=N\NC(=O)CNC(=O)c1cccc(Br)c1	4	18	10	1.4	.	2	0.8	-2.3	.	i
O=C(Nc1ccc2c(c1)CCC2)C1CCN(c2ncccn2)CC1	-3	.	.	.	0.4	-10	-0.7	.	0.67	.
Nn1c(Cc2cccc3ccccc23)n[nH]c1=S	-8	-1	-5	1.1	1.2	0	-0.9	-5.3	0.68	i
CCOC(=O)c1c(NC(=O)c2ccno2)c2cc([N+](=O)[O-])ccc2n1C	2	15	7	2.4	3.9	-3	-0.2	.	0.7	i
S=C(Nc1ccc(Cl)cc1Cl)NC1CCN(Cc2ccccc2)CC1	50	7	-1	-5.2	5.4	-2	2.6	5.9	0.67	i
Cc1ccc(CNC(=O)Nc2cccc(C)c2)cc1	-4	18	12	5.1	1.7	-5	0.4	0.0	0.68	i
CCCN(C(=O)CCCSc1nc2ccccc2[nH]1)c1c(N)n(Cc2ccccc2)c(=O)[nH]c1=O	-7	5	0	0.6	-1.2	-4	0.6	-22	0.64	i
COc1ccc(NC(=O)CS(=O)(=O)Cc2nc(-c3ccc(C)cc3)oc2C)cc1	0	3	4	1.1	-1.5	-3	0.7	0.5	0.68	i
CCOc1ccc(NC(=O)CN(C)C(=O)CN2C(=O)NC3(CCCC3)C2=O)cc1OCC	0	14	11	-1.5	-2.4	2	0.2	-0.4	0.66	.
COC(=O)C1CCN(C(=O)COC(=O)COc2ccc(C#N)cc2)CC1	4	0	1	0.1	3.6	1	0.7	0.6	0.69	i
CCN1C[C@@H]2[C@@H]3C(=O)N(Cc4ccccc4)C(=O)[C@@H]3[C@](C)(C1=O)N2C(=O)c1ccc(C(C)(C)C)cc1	.	-3	3	-12	28*	.	.	1.6	.	i
Cc1ccc(/C=C/C2=NN(Cc3ccccc3Cl)C(=O)CC2)cc1	20	.	.	.	-0.8	1	0.5	.	0.76	.
COc1ccc(N2CC(O)=C(c3nc(-c4ccc(F)cc4)cs3)C2=N)cc1OC	7	-7	-4	0.1	3.1	-4	-0.5	1.0	0.73	i
O=C(Nc1ccc2c(c1)OCCO2)c1ccc(Cl)c(S(=O)(=O)N2CCCCC2)c1	23	.	.	.	2.0	-2	-1.1	.	0.66	.
COc1ccc(S(=O)(=O)Nc2ccc3c(c2)OCO3)cc1C(=O)O	11	.	.	.	0.6	-4	1.4	.	0.71	.
COc1ccc(-n2ncc3c(Nc4cccc(C)c4)ncnc32)cc1	9	-2	-1	4.2	-8.0	-1	0.4	-5.7	0.7	i
O=C(Nc1nnc(SCCC2OCCO2)s1)C1CC(=O)N(c2ccc(F)cc2)C1 (centres undefined)	0	3	6	3.1	2.2	2	-0.4	-0.7	0.74	i
O=C(NCc1ccccn1)c1ccc(CS(=O)(=O)Cc2ccc(Cl)cc2)o1	9	.	.	.	-2.4	4	1.0	.	0.61	.
N/C(=N\OC(=O)Cc1ccccc1)c1ccccc1Cl	6	-17*	-2.7*	5.2*	1.8	1	-1.2	1.1	0.65	i
CCOc1ccc(C2NC(=O)C(C#N)=C(S)N2c2ccc(C)cc2)cc1OC (centres undefined)	1	.	.	.	0.9	-5	0.2	.	0.73	.
Cc1ccc(S(=O)(=O)NCCC(=O)OC(C)C(=O)NC2CC2)cc1 (centres undefined)	.	8	9	-0.2	3.6	.	.	-2.5	0.69	i
N/C(=N\OC(=O)Cc1ccc(Cl)cc1)c1ccccn1	-27	.	.	.	0.2	-10	0.2	.	.	.
Cc1ccccc1S(=O)(=O)Oc1ccc2ccc(O)cc2c1	-5	-47	-76	-9.4	-0.6	8	-0.5	0.0	0.66	i
COc1ccc(C(=O)CC(=O)C(=O)Nc2ccccc2Cl)cc1	-6	-14	-8	-2.2	4.2	-2	1.4	4.1	0.69	i
O=C(Nc1ccccc1F)c1cc(-c2ccco2)nc2ccccc12	20	12	12	2.1	-97	.	0.3	0.7	0.71	.
CCOC(=O)C1CCN(C(=O)Nc2ccc(C)c(Cl)c2)CC1	-8	-6	1	-1.5	1.1	-10	0.2	8.8	0.68	i
O=C(Cn1nc(C(F)(F)F)c2c1CCC2)NC1CCCCC1	-3	.	.	.	2.6	2	0.7	.	0.69	.
CCOc1ccc(NC(=O)COc2nsnc2N2CCOCC2)cc1	-6	4	7	-5.3	2.9	-4	-0.2	6.7	0.65	i
Cc1cccc(N(C(=O)Cn2nnc(-c3ccc(F)cc3)n2)C(C(=O)NC(C)(C)C)c2ccncc2)c1 (centres undefined)	3	16	15	0.0	0.3	-7	1.2	-0.3	0.71	.
CCOc1ccc(S(=O)(=O)N2CCCCCC2)cc1	-18	.	.	.	1.2	-5	-0.2	.	0.7	.
COC(=O)C1=C(C)NC(=O)/C1=C\c1cccs1	-3	.	.	.	3.1	.	0.9	.	0.77	.
O=C/C(=C\Nc1ccc(Cl)cn1)c1nc2cc(Cl)ccc2o1	-7	.	.	.	3.2	-10	0.4	.	0.73	.
COc1cccc(/C=N/NC(=O)C(=O)N2CCCCCC2)c1OC	-11	14	13	2.2	.	-7	1.4	-0.3	.	i
CCN(CC(=O)NCc1ccc(Cl)cc1)C(=O)CCOc1ccc(C)cc1	1	-25	-44	-8.6	4.1	-10	-0.4	-9.6	0.63	i
N=c1c(S(=O)(=O)c2ccccc2)cc2c(=O)n3ccccc3nc2n1C1CCCC1	4	7	9	1.7	-22	.	-0.4	-6.4	0.64	i

Some of the entries so far, bar-delimited.
canonical_smiles | T cruzi inh | Ecoli rRNA inh | Ecoli rRNA inh OD600 | Ecoli rRNA inh RFP | UCH37 inh | Beta cell apopt | A1 inh | AF4-AF9 inh | Ecoli growth | FGF22 binding
O=C(Cn1nc(C(F)(F)F)c2c1CCC2)NC1CCCCC1 | -3 | . | . | . | 2.6 | 2 | 0.7 | . | 0.69 | .
CCOc1ccc(NC(=O)COc2nsnc2N2CCOCC2)cc1 | -6 | 4 | 7 | -5.3 | 2.9 | -4 | -0.2 | 6.7 | 0.65 | i
Cc1cccc(N(C(=O)Cn2nnc(-c3ccc(F)cc3)n2)C(C(=O)NC(C)(C)C)c2ccncc2)c1 (centres undefined) | 3 | 16 | 15 | 0.0 | 0.3 | -7 | 1.2 | -0.3 | 0.71 | .
CCOc1ccc(S(=O)(=O)N2CCCCCC2)cc1 | -18 | . | . | . | 1.2 | -5 | -0.2 | . | 0.7 | .
